Screens as filed in PubChem BioAssay.
nsP2pro inh: CHIKV nsP2 protease inhibition, primary qHTS; 1.1% of 31,000 active; AID 1964107; FRET peptide cleavage, nsP2pro, fluorescence 1 h; Potency, µM (top dose mostly 24.9 µM), for inactives: at the top dose activity change, negative = inhibition, usual class: inhibitors; active means well fitted inhibition curve with a large enough effect; inconclusive means small, poorly fitted or top-dose-only effect; inactive means no such curve, though single readings can be large or run the other way; note: nearly all actives have a fitted effect of over 60% in size; a reference inhibitor and vehicle were the controls
The depositor's hits bear a star; i = inactive; u = inconclusive; & = joins results of further samples; ! = not confirmed by another sample; [ ] = remark or other dose. % is set by controls: 0 for no effect and ±100 for the full control effect; potency is the fitted concentration of half-maximal effect.

| Structure | nsP2pro inh |
| --- | --- |
| CN(C)S(=O)(=O)n1cc(/C=C(\NC(=O)c2ccccc2F)C(=O)NCCCn2ccnc2)c2ccccc21 | 79%[activator] |
| O=C(NC1CCCCC1)O[C@@H]1CO[C@H]2[C@@H]1OC[C@@H]2Nc1nccc(-c2cccs2)n1 | -16%[39.2 µM] |
| C=C1C(=O)O[C@@H]2[C@H]1CC[C@H](C)[C@]1(CCC(=O)O1)C2(C)O (stereo partly specified) | u |
| O[C@@H](CNC[C@H](O)[C@H]1CCc2cc(F)ccc2O1)[C@@H]1CCc2cc(F)ccc2O1 | -2% |
| Oc1ccc(CNc2ccccc2Cl)c2cccnc12 | -12% |
| O=C(COC(=O)CCCC1=NS(=O)(=O)c2ccccc2N1)Nc1ccc(Br)cc1 | 1% |
| CCOc1ccc(N2CC(NC(=O)C(=O)c3c[nH]c4ccccc34)CC2=O)cc1 (stereo unspecified) | -22% |
| COc1ccc(/C=C/C(=O)N2CCCC2)cc1 | 7% |
| CCCS(=O)(=O)N1CCCC(OCc2noc(C3CCOCC3)n2)C1 (stereo unspecified) | 1% |
| CC(C)=CC1C(C(=O)OCc2cccc(Oc3ccccc3)c2)C1(C)C (stereo unspecified) | -6% |
| O=C(N[C@H]1CO[C@H]2[C@@H]1OC[C@@H]2Nc1nccc(-c2ccc(-c3ccccc3)cc2)n1)C1CCCCC1 | -1% |
| Cc1ccsc1[C@@H]1CCN(Cc2ccc(-c3ccn[nH]3)o2)C[C@H]1O | 3.5µM* |
| O=C(NCC1(O)CCCNCC1)c1cccc(-c2ccc(F)cc2)c1 (stereo unspecified) | i |
| Cc1ccc(C2=CC(c3c(F)cccc3Cl)n3ncnc3N2)cc1C (stereo unspecified) | -7% |
| COc1ccc(C(=O)N=c2sc3cc(Cl)ccc3n2C)cc1 | u |
| O=C(N1CCc2ccc(S(=O)(=O)N3CCN(S(=O)(=O)c4ccc5c(c4)OCCO5)CC3)cc2C1)C(F)(F)F | -17% |
| CCOC(=O)c1ccc(-n2c(C)cc(-c3nnc4n3CCCCC4)c2C)cc1 | -11% |
| CC12CCC(=O)C=C1C(O)CC1C2C(O)CC2(C)C1CC[C@]2(O)C(=O)CO (stereo partly specified) | -2%[5.1 µM] |
| CCc1nc(CN2CCOC(c3ccc4cc(OC)ccc4c3)C2)no1 (stereo unspecified) | -3% |
| COc1ccc(-c2nc(C)nc3c2CCN([S+](=O)([O-])c2cccs2)CC3)cc1 | i |
| Oc1ccc(/C=C/c2ccccc2)c2cccnc12 | i |
| O=C(OCC#CCSc1nnc(-c2cccc3ccccc23)o1)C1CCCC1 | -7% |
| CCCn1cnc2cc(NC(=O)c3cc(OC)c(OC)c(OC)c3)ccc21 | 8% |
| O=C(OCCN1CCCCC1)C(O)(c1ccccc1)c1ccccc1 | 2% |
| Nc1ccc(F)cc1NC(=O)c1ccc(CNC(=O)/C=C/c2cccnc2)cc1 | u |
| Cc1ccc(CNC(=O)N2CCCC(c3nn[nH]n3)C2)cc1 (stereo unspecified) | 2% |
| C=C(C(=O)O)C1CCC2(C)CCC(O)C(=C)C2C1 (stereo unspecified) | 80%[activator] |
| CO/N=C(/C(=O)N[C@@H]1C(=O)N2C(C(=O)O)=C(CSC(=O)c3ccco3)CS[C@H]12)c1csc(N)n1 | 11µM*! |
| CCCC(C(=O)O)c1c(C)nc2ccc(Cl)cc2c1-c1ccccc1 (stereo unspecified) | -9% |
| CC(C)Sc1ncc(Cl)c(C(=O)Nc2ccc(S(=O)(=O)N(C)c3ccccc3)cc2)n1 | -17% |

The closing 7 records of the part above lead into the next:
| Structure | nsP2pro inh |
| --- | --- |
| O=C(OCCN1CCCCC1)C(O)(c1ccccc1)c1ccccc1 | 2% |
| Nc1ccc(F)cc1NC(=O)c1ccc(CNC(=O)/C=C/c2cccnc2)cc1 | u |
| Cc1ccc(CNC(=O)N2CCCC(c3nn[nH]n3)C2)cc1 (stereo unspecified) | 2% |
| C=C(C(=O)O)C1CCC2(C)CCC(O)C(=C)C2C1 (stereo unspecified) | 80%[activator] |
| CO/N=C(/C(=O)N[C@@H]1C(=O)N2C(C(=O)O)=C(CSC(=O)c3ccco3)CS[C@H]12)c1csc(N)n1 | 11µM*! |
| CCCC(C(=O)O)c1c(C)nc2ccc(Cl)cc2c1-c1ccccc1 (stereo unspecified) | -9% |
| CC(C)Sc1ncc(Cl)c(C(=O)Nc2ccc(S(=O)(=O)N(C)c3ccccc3)cc2)n1 | -17% |
| C=CCOc1cccc(-c2nnc(CCC(=O)NC(C)CC)c(=O)[nH]2)c1 (stereo unspecified) | 3% |
| CC(C)C1=NOC2(CCN(C(=O)C3CCCC3)CC2)C1 | -7%[39.2 µM] |
| CCOP(=O)(OCC)Oc1ccc2c(C)cc(=O)oc2c1 | 14% |
| CCOc1ccc(N2CC(NC(=O)Cc3cccs3)CC2=O)cc1 (stereo unspecified) | -8% |
| CN(C)c1cccc(-c2nc(-c3nnn4c3COC(c3ccccc3Cl)C4)no2)c1 (stereo unspecified) | i |
| O=C1CCC[C@@H]2[C@@H]3CCC[N@+]4([O-])CCC[C@H](CN12)[C@H]34 | -11% |
| Cc1ccc(CNC(=O)c2c[nH]c3ccc(S(=O)(=O)N4CCOCC4)cc3c2=O)cc1 | -20% |
| CS(=O)(=O)N1CCC2(CC1)CN(C(=O)c1ccc(Cl)cc1)CCO2 | -13% |
| O=C(C1COc2ccccc2O1)N(Cc1cccnc1)c1nc2ccc(Cl)cc2s1 (stereo unspecified) | -15% |
| CCN(CC)CCCCn1c(-c2ccccc2)nc2c(N(CCOC)CCOC)nc(C)nc21 | 2% |
| Cc1noc(/C=C/N(C)C)c1S(=O)(=O)N1CCCC(C(=O)Nc2ccc(F)cc2F)C1 (stereo unspecified) | -4% |
| Cc1ccc(CN2CCn3c(nn(-c4ccncc4)c3=O)C2)cc1 | 2%[39.2 µM] |
| C[C@@H](NC(=O)[C@@H]1C[C@@H](NS(=O)(=O)c2cccs2)CCN1C(=O)c1ccco1)C(N)=O | -10% |
| CC(C)c1cc(C(=O)NCc2cccnc2Oc2cccc(C(F)(F)F)c2)n[nH]1 | i |
| COc1ccc(-n2cc(-c3ccccc3)c3c(NC4CCCC4)ncnc32)cc1 | -29% |
| CN(C)C[C@@H]1CN(c2ccncn2)C[C@H]1NC(=O)c1nccc2ccccc12 | 3% |
| COCCNC(=O)CC[C@]12CC[C@](C)(O)C[C@H]1C(C)(C)C[C@@H]2NS(=O)(=O)c1ccc(C)cc1 | -2% |
| O=C(/C=C/N1C[C@@H]2C[C@@H]1CN2c1ccccn1)c1ccccc1O | 18% |
| NC(=O)C1CCN(c2nccc(Cl)n2)CC1 | i |
| COc1cccc(CN2Cc3cc(NC(=O)Cc4cccs4)ccc3OCC2=O)c1OC | 5% |
| O=C(c1ccc(F)cc1)N1CCC2(CNc3ccccc3[S+](=O)([O-])N2)C1 (stereo unspecified) | -18% |
| Cc1nc(NCc2ccccc2)c2nc(-c3ccccc3)n(C(C)CN(C)C)c2n1 (stereo unspecified) | -2% |
| C[C@@]1(O)CCN(C2CCN(c3ccc(F)cc3)CC2)C[C@@H]1O | -6% |
| COc1ccc(NC(=O)CN2C(=O)CCn3nc(-c4cccn4C)cc32)cc1 | -18% |
| CN(C)c1cccc(C(=O)NC2CCN(c3cc(-c4cccs4)[nH]n3)C2)c1 (stereo unspecified) | 2% |
| NCc1c[nH]c(=S)n1[C@@H]1CCc2c(F)cc(F)cc2C1 | 38%[activator] |
| COc1ccc(C(=O)Nc2cnc3c(c2)CCC3)cc1 | -1% |
| Oc1ccc([C@H]2CNCc3c2ccc(O)c3O)cc1O | 3.5µM* |
| CC(/C=C/[C@]1(O)[C@@]2(C)CO[C@@]1(C)C[C@@H](O)C2)=C\C(=O)O[C@@H]1O[C@H](CO)[C@@H](O)[C@H](O)[C@H]1O | 46%[activator][10 µM] |
| CCNC(=O)CC1COCCN1C(=O)c1csc(-c2cccs2)n1 (stereo unspecified) | 5% |

Copied from the entries so far (3 entries):
| Structure | nsP2pro inh |
| --- | --- |
| C=CCOc1cccc(-c2nnc(CCC(=O)NC(C)CC)c(=O)[nH]2)c1 (stereo unspecified) | 3% |
| CC(C)C1=NOC2(CCN(C(=O)C3CCCC3)CC2)C1 | -7%[39.2 µM] |
| CCOP(=O)(OCC)Oc1ccc2c(C)cc(=O)oc2c1 | 14% |

The listing continues.
| Structure | nsP2pro inh |
| --- | --- |
| CN(c1ccccc1)S(=O)(=O)C1CCS(=O)(=O)C1 (stereo unspecified) | -1% |
| CC1=CC23[C@H](C=C(C(=O)O)[C@@H]2COC(=O)[C@]3(O)CO)[C@@H]1C (stereo partly specified) | -10% |
| COc1cc(NC(=O)c2cc(Cl)ccc2Cl)ccc1NC(=O)c1cc2ccccc2o1 | -14% |
| CC(Oc1ccc(F)cc1)C(=O)Nc1nc(-c2ccc(F)cc2)ns1 (stereo unspecified) | -5% |
| CCc1nnc(SC(CC)C(=O)Nc2cccc(OC)c2)c2cc3oc(C)cc3n12 (stereo unspecified) | -14% |
| C=CC1(C)C=C2C(O)CC3C(C)(C(=O)O)CCCC3(C)C2CC1 (stereo unspecified) | 2% |
| O=C(CSc1ccccc1)Nc1nnc(COc2ccc(Cl)cc2)s1 | u |
| Cc1ccc(-c2cc(C(=O)Nc3ccc(Cl)cc3)c3ccccc3n2)cc1C | 0% |
| CCOc1ccc(-c2cc3nc(C4CCN(C(=O)OC(C)(C)C)CC4)c(C(=O)Nc4cccc(Cl)c4C)cn3n2)cc1 | 16% |
| Cc1ccccc1NC(=O)CSc1nc2c(c(=O)n(C)c(=O)n2C)n1Cc1ccccc1F | -11% |
| COC1CCN(CC2CCCCCN2C(=O)NCc2ccc(F)cc2)CC1 (stereo unspecified) | -1% |
| COc1ccc(C2Nc3ccccc3C(=O)N2CC(C)(C)C)cc1COc1ccc(NC(C)=O)cc1 (stereo unspecified) | 2% |
| CCC1=Nc2cc(C(=O)NC3CCCC3)ccc2Sc2ccc(Br)cc21 | -21% |
| CN1CCN(c2ccc(NC(=O)CN(C)Cc3c(O)ccc4ccccc34)cc2)CC1 | 13µM* |
| O=S(=O)(c1ccc2c(c1)OCCO2)N1CCN(S(=O)(=O)c2c(F)cc(F)cc2F)CC1 | -10% |
| COc1cc2ncnc(Nc3ccc(NC(=O)c4ccccc4)cc3)c2cc1OC | 41%[activator] |
| Cc1ccc(NC(=O)C(=O)NCc2ccco2)cc1 | u |
| CCn1cc(CN2CCCC23CCN(c2cc(C)nc4ccccc24)CC3)c(C)n1 | i |
| COc1ccccc1OCCN1CC(COc2cccc3[nH]c4ccccc4c23)OCC1=O (stereo unspecified) | -7% |
| O=C(O)CCCC(=O)N[C@H]1CO[C@H]2[C@@H]1OC[C@@H]2Nc1nccc(-c2ccc3c(c2)OCO3)n1 | -14% |
| COC(=O)C1=COC(OC2OC(CO)C(O)C(O)C2O)C2C(C)CC(=O)C12O (stereo unspecified) | -14%[10 µM] |
| COc1cccc(-c2csc(N3CCC(C(N)=O)CC3)n2)c1 | 4% |
| COc1cccc(C(=O)Nc2ccccc2-c2nnc(-c3cc(OC)ccc3Br)o2)c1 | -19% |
| C=CC(=O)N1CCC([C@@H]2CCNc3c(C(N)=O)c(-c4ccc(Oc5ccccc5)cc4)nn32)CC1 | -5% |
| CC1(C)[C@H]2CC=C(CN3CCC(CCC(=O)N4CCN(c5ccccc5)CC4)CC3)[C@@H]1C2 | 3% |
| Cc1ccc(CNC(=O)c2nc(SCc3ccccc3C)ncc2Cl)cc1 | -3% |
| CCOC(=O)CSc1nnc2n(-c3ccccc3)c(=O)c3c4c(sc3n12)COC(C(C)C)C4 (stereo unspecified) | -17% |
| O=C(Nc1nnc(S(=O)(=O)N2CCOCC2)s1)c1cccc(F)c1 | -24% |
| CCS(=O)(=O)c1ncc(N(Cc2ccco2)Cc2sccc2C)c(C(=O)Nc2cc(C)ccc2C)n1 | -2% |
| Cc1ccc(C)c(-c2[nH]c3c(c2-c2c(-n4cccc4)n(C)c(=O)n(C)c2=O)c(=O)n(C)c(=O)n3C)c1 | -25% |
| COc1ccc(CCNC(=O)CC(c2cccc(F)c2)c2cn(C)c3ccccc23)cc1OC (stereo unspecified) | -21% |
| Cc1coc2c1CC1OC1(C)CCC1OC1(C)C2 (stereo unspecified) | u |
| CC(C)(O)C(Cl)(Cl)Cl | -6% |
| COc1cc(CN(CCN)C(=O)c2cccs2)ccc1OCc1ccccc1 | 24% |
| CC(=O)Nc1ccc(S(=O)(=O)NCC2CCC(C(=O)NCCN(CC(C)C)CC(C)C)CC2)cc1 (stereo unspecified) | -12% |
| COc1cc(OC)c(NC(=O)CC(c2cccs2)N2Cc3ccccc3C2=O)cc1Cl (stereo unspecified) | u |
| CCN1C(=O)c2ccccc2S(=O)c2ccc(C(=O)NCc3ccccc3OC)cc21 (stereo unspecified) | 0% |
| COCCN1Cc2ccc(NCC(C)C)nc2C(C)(C(=O)NC2CCC2)C1 (stereo unspecified) | -3%[39.2 µM] |
| CC(=O)N1CCn2c(nn(-c3ccncc3)c2=O)C1 | 1%[39.2 µM] |
| CN(C)c1cc(N2CCCC(NS(C)(=O)=O)C2)ncn1 (stereo unspecified) | 3% |
| O=C1c2ccccc2C(=O)N1c1cccc2cccnc12 | i |
| CCc1nn2c(=O)cc(N3C(C)CNCC3C)nc2s1 (stereo unspecified) | 2% |
| CC(C)C1CCC(C(=O)N[C@H](Cc2ccccc2)C(=O)O)CC1 (stereo partly specified) | -16%&-4% |
| COC(=O)C1=COC(OC2OC(CO)C(O)C(O)C2O)C2C(COC(=O)/C=C/c3ccc(O)c(O)c3)C(O)C(O)C12 (stereo unspecified) | 22%[10 µM] |
| Cc1ccc(C)c(CSc2nc3c([nH]c4ccccc43)c(=O)n2C)c1 | -24% |
| O=C(NC[C@H]1OC[C@@H](NC2CCOCC2)[C@@H]1O)N1CCOCC1 | i |
| O=C(CC1C(=O)Nc2ccccc21)OC[C@H]1O[C@@H](OCCc2ccc(O)cc2)[C@H](O)[C@@H](O)[C@@H]1O (stereo partly specified) | 57%[activator][10 µM] |
| C=CC1(C)CC2=CCC3C(C)(C(=O)O)CCCC3(C)C2CC1OC(C)=O (stereo unspecified) | u |

Not all compounds are listed; count on the stated rates, not on these rows.
